# gsp ag – gsp mutant agonism. gsp mutant cells, cAMP HTRF, 30 min; control for the full effect not named in the record. Potency, µM (top dose mostly 76.9 µM), for inactives: at the top dose activation (cAMP increase), usual class: activators. 340,000 tested, 0.13% active. AID 624287; active = well fitted activation curve with a large enough effect; inconclusive = small, poorly fitted or top-dose-only effect, or another doubt; inactive = no such curve, though single readings can be large or run the other way; cell line not stated here;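 further: phosphodiesterase inhibitor Ro 20-1724 added with compounds to block cAMP breakdown; potency means the concentration at half of the fitted maximal effect; nearly all actives have a fitted effect of over 60% in size; about a fifth of the inactives were tested at one dose only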
#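 Cells in DMEM/10% FBS with G418 were pretreated with compounds in DMSO plus […] (300 uM stock) for 30 min at 37C. cAMP was measured by HTRF (cAMP-d2 plus anti-cAMP antibody-K) after 30 min at room temperature.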
# gsp antagonist – gsp mutant antagonism; gsp-mutant cells, cAMP HTRF, 30 min; control for the full effect not named in the record; Potency, µM (highest dose often 76.9 µM), inactives show at the highest dose activity change, negative = inhibition, usual class: inhibitors; 340,000 tested, 0.4% active; AID 624288; active = falling curve of any shape with a large fitted effect; inconclusive = falling curve, mostly with a smaller effect; inactive = flat or rising curve; cell line not stated here;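 further: intracellular cAMP measured with PDE inhibitor Ro 20-1724 present during compound exposure; potency means the concentration at half of the fitted maximal effect; on the % scale 0 is the no-effect control and ±100 the full control effect; nearly all actives have a fitted effect of over 65% in size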
#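 HTRF cAMP measurement after 30 min RT detection following 30 min, 37C compound treatment alongside […] (added as 300 uM solution) in G418-selected cells seeded at 2000/well and grown 16–24 h.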
# Sfp inh – blocks B. subtilis Sfp PPTase activity | Q9F4F7 | Biochemical Sfp PPTase activity, qHTS | Potency, µM, for the others: max response, negative = inhibition, hits mostly inhibitors | 310,000 tested, 3.5% active | AID 1490; active means well fitted inhibition curve with a large enough effect; inconclusive means small, poorly fitted or top-dose-only effect, or another doubt; inactive means no such curve, though single readings can be large or run the other way;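 further: the enzyme is Sfp with the accession as filed and its product quenches rhodamine fluorescence; potency means the concentration at half of the fitted maximal effect; 0% = enzyme reaction without inhibitor and -100% = no enzyme wells; top concentration of the series not given in the record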
#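 Fluorescence-quenching assay: 15 nM Sfp-PPTase preincubated 15 min at room temperature with compound, then 5 uM rhodamine-CoA and 12.5 uM BHQ-2-labelled YbbR peptide added. Fluorescence (ex 525/em 598 nm) read at start and after 30 min; difference gives rate.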
# CtBP-E1A blk – CtBP/E1A binding inhibition; AlphaScreen GST-E1A/His-CtBP binding, 1536-well; stronger effect = lower value; control for the full effect not named in the record; activity change, % (test concentration not listed); 340,000 tested, 0.49% active; AID 651724; in the data active means activity change below about -65%; inconclusive means about -30% to -65%; inactive means above about -30%; further: on the % scale 0 is the no-effect control and ±100 the full control effect; compound concentration not given in the record
#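 AlphaScreen with 125 nM GST-E1A and 125 nM His-CtBP (5X stocks) in Tris pH 8.0, 300 mM NaCl, BSA, Tween 20, TCEP. Compounds preincubated 2 h at 37 deg C, then glutathione donor/nickel acceptor beads added for 1 h at 37 deg C in dark.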
# ClpP mod – qHTS Assay for Activators of ClpP; ATP-dependent Clp protease proteolytic subunit (Bacillus subtilis (strain 168)), P80244; purified B. subtilis ClpP, FRET peptide cleavage, 20 min; Potency, µM (top dose mostly 57.5 µM), for the others: at the highest dose activity change, negative = active; 340,000 tested, 1.9% active; AID 651965, 2013; active = well fitted falling curve with a large enough effect; inconclusive = small, poorly fitted or top-dose-only effect; inactive = no such curve, though single readings can be large or run the other way; further: potency means the concentration at half of the fitted maximal effect; the source files actives as falling curves though it sought activators and does not explain the sign; nearly all actives have a fitted effect of over 65% in size; many hits overshoot -100%
# Target sequence (P80244 whole entry, looked up): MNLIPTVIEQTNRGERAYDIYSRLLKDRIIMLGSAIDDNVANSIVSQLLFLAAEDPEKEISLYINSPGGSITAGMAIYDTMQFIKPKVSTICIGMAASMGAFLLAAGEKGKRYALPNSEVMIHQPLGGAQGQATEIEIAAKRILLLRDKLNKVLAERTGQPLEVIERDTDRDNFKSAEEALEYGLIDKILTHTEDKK
#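 ClpP 10 microg/mL final, pH 8 Tris/KCl buffer with BSA, glycerol, Tween-20; compound pinned in; FRET-FV substrate; RT 20 min; Ex320/Em430; ΔFRET vs ADEP 5.8 microM, DMSO, no enzyme.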
# Menin-MLL FL inh – inhibitors of human menin-MLL interaction, wild-type MLL peptide | Fluorescence polarization, fluorescein-MLL peptide displacement from menin | FP activity change, % at 61.4 µM | 290,000 tested, under 10 active | AID 1766; inconclusive = falling polarisation curve, or a change in total fluorescence; inactive = total fluorescence flat and polarisation flat or rising; no compound was filed as active; the % refers to the polarisation; negative = inhibition;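 further: % of control where 0% means no effect; inhibitors lower the polarisation; unlabelled MLL peptide was the positive control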
# TRPV1 PAM – human TRPV1 potentiation; 320,000 tested, 0.02% active; potentiation, % at 8.33 µM; TRPV1-expressing cells, Fluo-8 calcium influx, capsaicin EC20 potentiation; host cell line not named in the record; control for the full effect not named in the record; Q8NER1; active means potentiation above 80%; inconclusive means 30% to 80%; inactive means below 30%; further: 0% is about no effect
# Target sequence (Q8NER1 whole entry, looked up): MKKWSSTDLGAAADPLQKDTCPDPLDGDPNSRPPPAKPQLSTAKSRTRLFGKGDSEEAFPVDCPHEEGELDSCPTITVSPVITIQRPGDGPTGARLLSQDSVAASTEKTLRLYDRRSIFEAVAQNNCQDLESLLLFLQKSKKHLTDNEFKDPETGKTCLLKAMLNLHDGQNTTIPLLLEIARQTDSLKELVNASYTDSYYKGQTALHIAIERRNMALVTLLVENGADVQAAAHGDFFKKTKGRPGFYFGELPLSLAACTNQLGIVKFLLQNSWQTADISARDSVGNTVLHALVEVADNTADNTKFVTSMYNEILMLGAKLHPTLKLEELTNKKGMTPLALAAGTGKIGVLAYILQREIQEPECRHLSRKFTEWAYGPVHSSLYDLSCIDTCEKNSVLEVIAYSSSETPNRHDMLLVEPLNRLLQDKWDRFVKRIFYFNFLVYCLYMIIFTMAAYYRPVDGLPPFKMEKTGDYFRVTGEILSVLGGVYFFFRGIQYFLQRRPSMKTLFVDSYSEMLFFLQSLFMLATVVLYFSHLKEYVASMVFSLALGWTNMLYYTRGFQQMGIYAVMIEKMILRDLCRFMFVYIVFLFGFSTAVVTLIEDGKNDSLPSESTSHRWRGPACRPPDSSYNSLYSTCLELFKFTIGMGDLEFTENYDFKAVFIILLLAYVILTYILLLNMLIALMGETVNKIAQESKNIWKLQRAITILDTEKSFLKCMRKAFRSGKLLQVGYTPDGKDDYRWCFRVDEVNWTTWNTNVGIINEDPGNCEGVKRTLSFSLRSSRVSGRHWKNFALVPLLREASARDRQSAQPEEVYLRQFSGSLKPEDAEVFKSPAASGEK
#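 Fluo-8 calcium influx in TRPV1-expressing cells, kinetic read (ex 480/em 520 nm). Compound added and read 3 min for agonist activity, followed by capsaicin at EC20 final and 2 min further read for enhancement.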
# * marks the source's active call; other numbers are inactive results; ? = inconclusive; . = no result given; [ ] = dose if it differs, or a comment. Compounds were not picked by outcome; any-hit rate near 5.3%.
SMILES	gsp antagonist	gsp ag	ClpP mod	Menin-MLL FL inh	CtBP-E1A blk	Sfp inh	TRPV1 PAM
CCN1CCN(C(=O)CN(C)S(=O)(=O)c2cc(C)ccc2OC)CC1	8%	-11%	.	3.7	17	31%[activator]	1
CC(=O)Nc1cccc(Oc2ncnc3scc(-c4ccc(C(C)C)cc4)c23)c1	-6%	2%	-6.0%	4.9	-8	18%	-3
COC(=O)c1cccc(NS(C)(=O)=O)c1C	1%	-31%[inhibitor]	-1.2%	7.6	3	14%	9
COc1ccc(C(=O)Nc2cc(C(F)(F)F)ccc2-n2cnc3ccccc32)cc1	2%	-2%[15.4 µM]	1.8%	4.7	-2	11%	-1
CCOC(=O)c1cc2c(n(-c3ccc(C)cc3)c1=O)CCCC2=O	4%	0%	32µM*	0.4	0	-4%	-3
Cn1cc(C(=O)c2ccc(Cl)cc2Cl)cc1C(=O)N/N=C(\N)COc1cccc(C(F)(F)F)c1	-5%	17%	0.7%	4.9	-3	25%	4
COc1ccc(C(=O)CCc2nc3ccccc3s2)cc1	3%	12%	-0.3%	1.1	24	-2%	-6
O=C(Cc1ccccc1)N/N=C/c1cccc([N+](=O)[O-])c1	-11%	-27%[15.4 µM]	.	0.4	0	14%	-18
COc1cc(CNC(C)(C)C)ccc1OCC(=O)NC(C)(C)C	12%	-10%[15.4 µM]	.	2.2	-13	6%	-2
FC(F)(F)c1cnc(Oc2ccccc2-c2nnc(-c3ccc(Cl)cc3)o2)c(Cl)c1	2%	2%	?	3.6	-1	0%	-17
NC(N)=Nc1ccc(C=C2C=Cc3ccccc32)cc1	12%	?	1.1%	.	-1	.	.
CCn1c(SC(C)C(=O)Nc2ccc(N3CCOCC3)cc2)nnc1C1CC1 (stereo not given)	-5%	5%	1.0%	.	-2	.	-13
Cc1ccc(NC(=O)CSCC(=O)N(CCC(C)C)c2c(N)n(Cc3ccccc3)c(=O)[nH]c2=O)cc1	2%	0%	-2.1%	.	-8	.	6
C/C=C/c1ccc(OCCCCOc2ccccc2F)c(OC)c1	5%	12%	-15%	3.7	32	?	6
O=C(NCC1CCCO1)c1ccc(NC(=O)C2CCCCC2C(=O)O)cc1 (stereo not given)	-6%	2%	1.0%	-4.2	0	13%	2
CC1CCN(CC(O)COC2CCC(C(C)(C)C)CC2)CC1 (stereo not given)	-1%	7%	-2.4%	-0.5	-2	-5%	?
Cc1ccc(S(=O)(=O)N(C)c2ccc(C(=O)N3CCc4ccccc4C3)cc2)cc1	?	-36%[inhibitor]	-0.3%	-1.5	-7	-4%	3
CC1CCN(c2ccc3c(c2)S(=O)(=O)c2cccc(C(=O)NCc4cccc(F)c4)c2C3=O)CC1	-13%	24%	0.3%	.	14	.	3
CCN(CC)C(=O)Sc1cccc2cccnc12	3%	8%	28µM*	-0.9	-4	9%	-1
CC(Sc1nnc(-c2cccs2)n1C1CC1)C(=O)NCC1CCCO1 (stereo not given)	8%	5%	-0.3%	.	11	.	-13
CCN(CC)c1ccc(S(=O)(=O)N2CCOCC2)cc1NC(=O)COC(=O)/C=C/c1ccc(O)c(OC)c1	?	-7%	-8.5%	.	0	.	.
COC(=O)c1ccccc1Sc1ncnc2onc(C)c12	.	-1%[15.4 µM]	.	0.5	0	21%	-6
O=C(CN(CCc1ccccc1)C(=O)CNS(=O)(=O)c1ccc(F)cc1)NCc1ccco1	5%	13%	0.4%	1.2	6	8%	-9
O=S(=O)(c1cccs1)N1CCC2(CC1)OCCN2S(=O)(=O)c1ccccc1	-8%	17%[15.4 µM]	.	.	5	.	5
CCOC(=O)c1ccc(NC(=O)c2ccc[n+]([O-])c2)cc1	0%	-2%[15.4 µM]	.	-1.0	1	16%	9
O=C(CSc1nc(C2CC2)nc2ccccc12)N1c2ccccc2Sc2ccc(C(F)(F)F)cc21	-7%	-13%	3.1%	2.7	5	-1%	-2
CN1C(=O)CSC1=Nc1cccc(C(=O)O)c1	8%	-18%	-0.3%	0.4	.	-4%	1
COC(=O)CC1C(=O)NCCN1C(=S)Nc1cccc(C)c1 (stereo not given)	13%	8%	-4.9%	.	2	12%	-4
COc1cccc(/C=N/NC(=O)CSCC(=O)Nc2ccccc2)c1O	-6%	4%	-4.5%	0.3	-85*	24%	3
Cc1ccc(N(C(=O)CNC(=O)c2ccco2)C(C(=O)NC2CCCCC2)c2cccnc2)cc1 (stereo not given)	10%	5%[15.4 µM]	.	-5.7	1	12%	13
N#CCCN1CCN(C(=S)c2ccc(-c3cc(Cl)ccc3Cl)o2)CC1	-2%	-25%	1.5%	3.0	?	-14%	-1
CC(C)(C)c1ccc(C(=O)NCC(=O)NCC(C)(C)N2CCOCC2)cc1	-1%	-9%[15.4 µM]	0.8%	.	0	.	26
Cc1ccc(NC(=O)C2CCN(S(=O)(=O)c3ccc4[nH]c(=O)ccc4c3)CC2)c(C)c1	-22%	-43%[inhibitor]	-9.4%	-3.4	7	11%	6
Cc1ccc(NC2=NC3(CCCC3)N=C(N)N2)c(C)c1	13%	-23%	0.2%	-1.1	1	17%	-1
O=S(=O)(NC1CCCCC1)c1cccs1	7%	21%	.	.	5	9%	4
CC(=O)c1cnc(SCCN2C(=O)c3ccccc3C2=O)nc1C	2%	2%	-2.3%	6.6	0	16%	1
CC(C)Oc1ccccc1/C=N/Nc1ccccc1[N+](=O)[O-]	-5%	-3%	-2.1%	3.4	-76*	-5%	8
COc1ccc(CCNc2nc(-c3sc(N)nc3C)cs2)cc1OC	-19%	13%	?	10	-27	-13%	?
CC(=O)N1c2ccc(S(=O)(=O)NCC3CCC(C(=O)N4CCC(C)CC4)CC3)cc2CC1C (stereo not given)	-7%	?	-0.5%	-1.0	2	18%	-2
O=C(NC1=NCCS1)c1cccc(N2C(=O)c3ccccc3C2=O)c1	-6%	?	-0.7%	-4.5	-4	16%	-14
COC(=O)c1ccc(COc2ccccc2/C=C(\C#N)C(=O)NC(C)C)cc1	2%	-5%[15.4 µM]	-2.0%	1.5	1	10%	-2
COc1ccc(C(C)N2CC34C=CC(O3)C(C(=O)O)C4C2=O)cc1 (stereo not given)	15%	12%	-2.4%	-0.3	2	7%	26
COCC(=O)NC1CCN(S(=O)(=O)c2ccc(C(=O)O)cc2)CC1	3%	8%	1.1%	-1.6	8	4%	-13
Cc1cc(C)c(C#N)c(SCC(=O)Nc2ccc3c(c2)OCO3)n1	6%	?	-1.0%	-1.7	2	6%	-5
NS(=O)(=O)c1cc(C(=O)OCC(=O)c2ccccc2)c(Cl)cc1Cl	-22%	5%[15.4 µM]	.	1.3	17	5%	8
O=C(Nc1cc(-c2ccccc2)cs1)c1ccco1	-4%	2%[15.4 µM]	.	.	-16	.	-3
COc1cccc(C2c3cc4c(cc3OC(N3CCCC3)C2C)OCO4)c1O (stereo not given)	22%	5%	-1.4%	.	0	.	.
COc1ccc(CCNC(=O)COc2cc(=O)n(C)c3ccccc23)cc1OC	-3%	-10%[15.4 µM]	.	0.3	6	10%	11
Cc1cccc(C)c1NC(=O)NC1(C(=O)N2CCOCC2)CCCCC1	13%	7%[15.4 µM]	11%	0.3	2	0%	24
CCn1c(C(=O)N2CCCC(C(=O)NCCc3ccc(C)cc3)C2)cc2sccc21 (stereo not given)	?	-12%	0.7%	0.4	50	-5%	3
COCCCN(C(=S)Nc1cc(Cl)cc(Cl)c1)C(C)c1ccncc1 (stereo not given)	?	-3%	.	1.2	4	25µM*	4
C=CCn1c(SCC(=O)Nc2ccc(C)cc2C)nnc1-c1cccnc1	5%	?	-1.1%	2.4	2	-8%	5
COc1ccc(N2CCN(C(=O)CCNS(=O)(=O)c3ccc4c(c3)CCC(=O)N4)CC2)cc1	-17%	30%	-5.0%	-4.1	-6	-7%	4
CCOC(=O)C1=C(C)n2c(s/c(=C3\C(=O)Nc4ccccc43)c2=O)=NC1c1ccc(OC)cc1 (stereo not given)	-2%	-6%	-0.5%	-1.1	-9	2%	0
Cn1nc(C(F)(F)F)c(/C=N/OC(=O)c2ccccc2)c1Sc1ccc(Cl)cc1	3%	16%	-3.1%	0.1	8	3%	18
CC(=O)Nc1ccc(NS(=O)(=O)c2ccccc2)c2ccccc12	9%	-95%[inhibitor]	.	0.3	0	-7%	3
CCCn1c(=O)c2c(c3ccccc31)OCC(=O)N2	4%[15.4 µM]	1%	-2.4%	1.1	10	17%	-10
COc1cccc(N2CCN(CC(=O)Nc3ccc(-n4cnnn4)cc3)CC2)c1	2%	16%[15.4 µM]	.	-2.0	3	17%	-3
CC1=C/C(=C(/c2cc(C)c(O)c(Br)c2)c2ccccc2S(=O)(=O)O)C=C(Br)C1=O	20µM*	-161%[inhibitor]	.	-18	-69*	-21%	5
N#Cc1c(NC(NC(=O)c2ccco2)C(=O)c2ccccc2)sc2c1CCCC2 (stereo not given)	1%	-20%	-1.1%	3.4	-5	20µM*	-5

# Carrying on:
SMILES	gsp antagonist	gsp ag	ClpP mod	Menin-MLL FL inh	CtBP-E1A blk	Sfp inh	TRPV1 PAM
O=C(CCc1nc2ccccc2c(=O)[nH]1)OCC(=O)c1ccc(C2CCCCC2)cc1	23%	?	-1.5%	2.4	2	14%	15
CC(C)c1cccc(C(C)C)c1NC(=O)CCl	6%	8%[15.4 µM]	-2.4%	2.6	-11	17%	-7
Cc1ccccc1C(=O)NC1CCSC1=O (stereo not given)	13%	0%	0.8%	?	.	-2%	-9
CCc1ccccc1NC(=O)Cn1nnc(-c2cccs2)n1	4%	-30%	0.6%	0.5	3	22%	-1
O=C(O)C1CCCCC1C(=O)NCc1ccncc1 (stereo not given)	7%	-6%	0.6%	6.7	5	6%	11
CC(C)COC(=O)N1CC(O)CC1C(=O)O (stereo not given)	-11%	0%	-0.9%	-3.8	4	8%	17
